Screens (PubChem BioAssay)
USP2a inhib: USP2a (human) protease inhibition | Potency, µM (series often up to 38.3 µM), for inactives: top-dose activity change, negative = inhibition, usual class: inhibitors | USP2a enzymatic assay, qHTS inhibition | O75604 | 0.1% of 60,000 active;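 also: potency is read from the fitted curve at half-maximal effect; nearly all actives have a fitted effect of over 60% in size; plate controls were DMSO for no effect and NEM full inhibition control for full effect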
Target sequence (O75604 whole entry, looked up): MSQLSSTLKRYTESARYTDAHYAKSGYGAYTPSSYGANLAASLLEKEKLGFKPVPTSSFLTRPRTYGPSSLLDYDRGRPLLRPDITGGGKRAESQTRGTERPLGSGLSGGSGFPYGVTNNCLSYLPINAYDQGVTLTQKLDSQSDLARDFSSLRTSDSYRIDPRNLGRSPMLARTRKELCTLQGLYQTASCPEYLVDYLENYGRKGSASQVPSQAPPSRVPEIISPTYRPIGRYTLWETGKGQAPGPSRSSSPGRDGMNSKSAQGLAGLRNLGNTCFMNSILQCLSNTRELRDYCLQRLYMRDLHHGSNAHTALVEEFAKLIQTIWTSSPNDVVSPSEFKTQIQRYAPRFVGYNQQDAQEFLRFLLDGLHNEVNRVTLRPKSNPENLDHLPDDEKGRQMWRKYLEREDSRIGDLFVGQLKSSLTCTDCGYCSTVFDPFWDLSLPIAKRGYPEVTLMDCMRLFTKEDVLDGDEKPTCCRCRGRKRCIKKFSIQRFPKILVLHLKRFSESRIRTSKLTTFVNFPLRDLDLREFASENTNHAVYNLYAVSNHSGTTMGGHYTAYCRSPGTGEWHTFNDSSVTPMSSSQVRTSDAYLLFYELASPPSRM
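Inhibition is measured in a cell-free coupled assay with 20 nM USP2 core, 20 nM Ub-PLA2 and 20 uM NBD C6-HPC, 2.5 h incubation. Activity normalized to NEM control.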
Texas Red fluor: compounds fluorescent in Texas Red spectral region; 0.06% of 59,000 active; max dye-equivalent concentration, M; Compound fluorescence, Texas Red channel, 547/618 nm; hits give high values; in the data active = max dye-equivalent concentration above about 10 nM; inconclusive = between about 1.1 nM and that limit
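Pin-transferred compounds and Texas Red standards go into 100 mM Tris buffer, pH 8.0. After 15 min at room temperature, plates are imaged with 547/618 nm filters. Each value is a dye-equivalent concentration derived from the per-plate dye curve.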
Rhodamine autofl: compound autofluorescence in rhodamine spectral region; Rhodamine-region fluorescence, 547/598 nm, Tris buffer; hits give high values; max dye-equivalent concentration, M; 0.05% of 59,000 active; in the data active = max dye-equivalent concentration above about 11 nM; inconclusive = between about 1.1 nM and that limit
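A six-point rhodamine series on each plate calibrates the signal. Compounds sit in 100 mM Tris (pH 8.0) for 15 min at ambient temperature before imaging through 547 nm/598 nm filters.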
BRCT inh red: disrupts BRCA1 BRCT binding to phosphoprotein, red fluorophore readout; Potency, µM (doses to about 76.9 µM), for the others: at the highest dose activity change, negative = inhibition, hits mostly inhibitors; 0.03% of 75,000 active; BRCT-phosphopeptide binding, red fluorescence polarization; P38398; also: % is scaled to controls: 0 for no effect and ±100 for the full control effect
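Rhodamine-labelled pBACH1 10-mer (100 nM) bound to BRCT domain (100 nM) at pH 7.3; compounds incubated 12 min room temperature, polarization read. Free peptide defines full inhibition; unlabelled decapeptide titrated as control.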
HEK293 cAMP ctrl: raises cAMP in parental HEK293 cells, TSHR agonist counter-screen; 2.5% of 73,000 active; parental HEK293 CNG cAMP sensor, membrane potential fluorescence; Potency, µM (doses to about 57.1 µM), for inactives: at the highest dose activation, usual class: activators; AID 938; also: potency is read from the fitted curve at half-maximal effect; % of control where 0% means no effect; nearly all actives have a fitted effect of over 55% in size
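Parental HEK 293 cells stably expressing a modified CNG channel (no TSHR) report cAMP rise as membrane depolarization. Membrane potential dye with 100 uM RO 20-1724 was loaded for 60 min at room temperature, then compound added for 30 min; fluorescence read at 590 nm.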
BRCT PPI green: blocks human BRCA1 BRCT binding to phosphopeptide, green readout. 0.05% of 75,000 active. P38398. BRCA1 BRCT-phosphopeptide binding, green fluorescence polarization. Potency, µM (top dose mostly 76.9 µM), without a hit: top-dose activity change, negative = inhibition, hits mostly inhibitors;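 also: potency is read from the fitted curve at half-maximal effect; plate controls were peptide without protein for full effect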
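Compounds were incubated for 12 min at room temperature with a complex of 100 nM fluorescein-tagged pBACH1 decapeptide and 250 nM His-tagged BRCT protein. Buffer was phosphate pH 7.3 with EDTA, DTT and Tween 20. Disruption of binding lowers the polarization signal.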
Fluorescein fluor: compound autofluorescence in fluorescein spectral region | Compound autofluorescence, 480/540 nm, fluorescein-equivalent; hits give high values | max fluorescein-equivalent concentration, M | 0.91% of 59,000 active; in the data active = max fluorescein-equivalent concentration above about 10 nM; inconclusive = between about 1.1 nM and that limit
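Library compounds, added at multiple concentrations to pH 8.0 Tris buffer (100 mM), incubate 15 min at room temperature before CCD imaging at 480 nm excitation and 540 nm emission.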
Active calls of the source: *; i = inactive; ? = inconclusive; / = not tested or not shown; & = joins results of further samples; [ ] = remark or other dose. Unless noted, calls follow the shape of the dose curve; as a rule, active = well fitted curve in the direction sought with a large enough effect; inconclusive = small, poorly fitted or top-dose-only effect, or another doubt; inactive = no such curve, though single readings can be large; an effect the other way counts as inactive or inconclusive. Not all compounds are listed; the hit share may differ from the screen's.

Molecule | USP2a inhib | Texas Red fluor | Rhodamine autofl | BRCT inh red | HEK293 cAMP ctrl | BRCT PPI green | Fluorescein fluor
COc1cccc(Nc2ncc3nc(-c4ccc(Cl)cc4)c(=O)n(C[C@H]4CCCO4)c3n2)c1 | 203%[activator] | i | i | -1.0% | 7% | -0.2% | i
CNC(=O)c1cc2c(=O)n3cc(C)ccc3nc2n(C(C)C)c1=N | -2% | i | i | 0.1% | -10% | -0.7% | ?
CCOc1ccc2nc(NCCNS(=O)(=O)c3ccccc3)c(C#N)cc2c1 | 2% | i | i | 1.0% | 27% | 0.3% | ?
COCCn1c(N)c(S(=O)(=O)c2cccs2)c2nc3ccccc3nc21 | 18% | i | i | -2.1% | 7% | 1.9% | ?
O=C(NCc1ccc2[nH]c3c(c2c1)CCCC3)N1CCOCC1 | 2% | i | i | -0.9% | -9% | -3.3% | 1.5e-08M*
Cn1cc(-c2nc3cnc(Oc4ccccc4)nc3n(Cc3cccs3)c2=O)c2ccccc21 | 139%[activator] | i | i | -0.9% | 12% | -2.9% | ?
Cc1cccc(S(=O)(=O)C(C#N)c2nc3ccccc3nc2N2CC(C)OC(C)C2)c1 (stereo not given) | 7% | i | i | -1.9% | -1% | 51%[activator] | i
COc1ncc2nc(-c3cccs3)c(=O)n(Cc3cccs3)c2n1 | 216%[activator] | i | i | -0.7% | 5%[2.29 µM] | -2.0% | i
O=C(NCc1ccco1)c1cc2nc(-c3ccc4c(c3)OCO4)cc(C(F)(F)F)n2n1 | / | i | i | 1.3% | 7% | -1.5% | i
O=c1[nH]c2cc3c(cc2cc1CN(Cc1nnnn1CC1CCCO1)C1CCCCC1)OCO3 (stereo not given) | 20% | i | i | -0.7% | 18% | -20% | ?
COc1ccc(N=c2oc3cc(O)ccc3cc2C(=O)NCC2CCCO2)c(OC)c1 (stereo not given) | 30% | i | i | -0.4% | ? | 7.7% | 1.4e-08M*
CN(C)c1ccc(-c2nc(-n3ccnc3)c3ccccc3n2)cc1 | ? | i | i | -2.9% | -30%[inhibitor] | 8.8% | ?
CN(C)/C=C1\C(=O)c2ccc(N(C)C)nc2CC1c1ccccc1 (stereo not given) | 27% | i | i | -0.7% | 12% | 12% | ?
C=CCn1c(=O)c(C#N)cc2c(=O)n3ccccc3nc21 | -4% | i | i | -1.0% | -3% | 1.4% | ?
O=c1c(-c2cccs2)nc2cnc(N3CCNCC3)nc2n1CCc1ccccc1 | 195%[activator] | i | i | -0.5% | -36%[inhibitor] | -1.8% | i
COCCn1c(=O)c(-c2ccc(OC)cc2)nc2cnc(Oc3cccc(Cl)c3)nc21 | 28% | i | i | -0.8% | 27% | -2.9% | i
CCCC(=O)Nc1ncnc2c1ncn2[C@@H]1O[C@H]2COP(=O)(O)O[C@@H]2[C@@H]1OC(=O)CCC | -3%[17.1 µM] | i | i | -0.4%[34.4 µM] | 1%[25.6 µM] | 1.5%[34.4 µM] | i
C=C1C[C@@]23C[C@@]1(O)CCC2[C@@]12C=CC(O)[C@](C)(C(=O)O1)C2C3C(=O)O (stereo not given in full) | -13% | / | / | 0.9% | / | 1.3% | /
COc1cc2c(cc1OC)C(c1ccc3c(c1)OCO3)C1=C(CC(C)(C)CC1=O)N2 (stereo not given) | -21% | i | i | 0.3% | -56%[inhibitor] | -3.7% | i
COc1ccc(Oc2ncc3nc(-c4cccs4)c(=O)n(-c4ccccc4)c3n2)cc1 | 133%[activator] | i | i | -2.2% | 5% | 34%[activator] | ?
N#CCSc1n[nH]c2nc3c(c(=O)n12)C1(CCCC1)Cc1ccccc1-3 | ? | ? | i | 1.6% | ? | -3.5% | ?
O=c1c(-c2ccccc2)[n+]([O-])c2ccccc2n1O | 5% | i | i | 0.3% | -11% | 0.4% | 1.7e-08M*
COc1ccc(-n2c(=O)c(-c3cccs3)nc3cnc(N4CCOCC4)nc32)cc1 | 81%[activator] | i | i | 2.6% | 3% | -1.3% | ?
O=c1c(-c2ccc(F)cc2)nc2cnc(N3CCOCC3)nc2n1CCc1ccccc1 | 101%[activator] | ? | i | -1.0% | 13%[2.29 µM] | 1.2% | i
COCCn1c(=O)c(-c2cccs2)nc2cnc(Oc3cccc(Cl)c3)nc21 | 29% | i | i | 0.6% | ? | 5.9% | ?
CC1(c2ccccn2)Nc2ccccc2-c2nc3ccccc3n21 (stereo not given) | 7% | i | i | -0.8% | 11% | 0.9% | i
COC(=O)c1c(NC(=O)c2cccs2)sc2c1CCCC2 | -12% | i | i | -1.0% | 28% | -1.2% | i
COc1ccc(-n2c(=O)c(-c3cccs3)nc3cnc(Oc4ccccc4)nc32)cc1 | 142%[activator] | i | i | -0.3% | 25% | 17% | i
C1=C(c2ccc(-c3ccccc3)cc2)Nc2ncnn2C1c1ccco1 (stereo not given) | 96%[activator] | i | i | -3.3% | ? | ? | 1.4e-07M*
Cc1cccc(S(=O)(=O)c2c(N)n(Cc3ccco3)c3nc4ccccc4nc23)c1 | 37%[activator] | i | i | 0.6% | 7% | 9.3% | 1.7e-08M*
O=c1cnc2cnc(N3CCNCC3)nc2n1C1CC1 | 1% | i | i | 0.2% | ? | -1.6% | i
CCNc1ncc2nc(-c3ccc(OC)cc3)c(=O)n(Cc3cccs3)c2n1 | 132%[activator] | i | i | 1.6% | 11% | -2.4% | i
C[C@@]12CC[C@@H]3c4ccc(O)cc4CC[C@H]3[C@H]1C[C@@H](O)[C@H]2O | 0%[17.1 µM] | i | i | 1.3%[34.4 µM] | -1%[25.6 µM] | 0.4%[34.4 µM] | ?
Cc1ccc2[nH]c(=O)c(CNC(C)(C)C)cc2c1 | -6% | i | i | -0.6% | 10% | -3.3% | i
CCNc1ncc2nc(-c3ccc(Cl)cc3)c(=O)n(-c3ccc(OC)cc3)c2n1 | 129%[activator] | i | i | 0.9% | 6% | 2.4% | i
Cn1c(=N)c(S(=O)(=O)c2ccccc2)cc2c(=O)n3ccccc3nc21 | 32%[activator] | i | i | -0.7% | -8% | -3.3% | ?
CN(C)c1ncc2nc(-c3cccc(C#N)c3)c(=O)n(CCC#N)c2n1 | 36%[activator] | i | i | -2.4% | -6% | 0.1% | i
Cc1ccc2cc(C#N)c(N3CCCN(C(=O)C4CCCO4)CC3)nc2c1C (stereo not given) | 125%[activator] | i | i | -3.2% | 28% | 1.7% | ?
Cc1cc2c(c(=O)n1C)C(Cc1ccccc1)C(C#N)=C(N)O2 (stereo not given) | -6% | i | i | 0.3% | ? | -2.5% | ?
COCCn1c(=O)c(-c2cc(F)cc(F)c2)nc2cnc(N3CCN(C)CC3)nc21 | 43%[activator] | i | i | -0.5% | -11% | 2.2% | i
CN1CCN(S(=O)(=O)c2ccc(=O)[nH]c2)CC1 | 1% | i | i | 1.1% | ? | 2.3% | i
Cc1ccc(S(=O)(=O)c2c(N)n(CC3CCOC3)c3nc4ccccc4nc23)cc1 (stereo not given) | 23% | i | i | 1.0% | 5% | 3.2% | i
CN1CCN(c2ncc3nc(-c4cccs4)c(=O)n(CCc4ccccc4)c3n2)CC1 | 155%[activator] | i | i | 1.4% | -1% | 3.0% | i
COCCn1c(=O)c(-c2cn(C)c3ccccc23)nc2cnc(Oc3ccccc3)nc21 | 89%[activator] | i | i | -0.1% | ? | -3.6% | i
O=C(c1cccn2c(=O)c3cc(Cl)ccc3nc12)N1CCOCC1 | -5% | i | i | -1.2% | -7% | 1.7% | ?
O=c1c(-c2ccc(F)cc2)nc2cnc(Nc3ccccc3)nc2n1C[C@H]1CCCO1 | 35%[activator] | i | i | 0.3% | -1% | -0.1% | ?
Cc1ccc(S(=O)(=O)N2CCN(c3nc4ccccc4nc3-n3nc(C)cc3C)CC2)cc1 | 29% | i | i | -0.1% | 21% | 1.2% | i
CC(=O)[C@@H]1[C@@H]2C(=O)N(Cc3ccccc3)C(=O)[C@@H]2C2c3ccccc3C=CN21 (stereo not given in full) | 56%[activator] | i | i | -4.8% | 0% | -6.3% | 1.5e-08M*
O=C(NC1CCCC1)c1cnn2c(C(F)(F)F)cc(-c3ccco3)nc12 | 38%[activator] | i | i | 0.5% | ? | -1.2% | ?
Cn1c(=O)c(-c2ccc(Cl)cc2)nc2cnc(N3CCNCC3)nc21 | 95%[activator] | ? | i | -1.0% | 10% | -2.6% | i
COc1cc(C2C3=C(CC(C)(C)CC3=O)Nc3c2c(=O)[nH]c(=O)n3Cc2ccccc2)ccc1O (stereo not given) | 28%&28% | i | i | 1.7%&-1.8% | 5%&8% | 2.6%&1.0% | ?
O=c1cnc2cnc(N3CCNCC3)nc2n1Cc1ccc(F)cc1 | 26% | i | i | -0.1% | 11% | -2.1% | i
CCc1ccccc1NS(=O)(=O)c1cc(C)ccc1OC | 15% | i | i | 1.0% | 20% | 2.0% | i
Cn1c(=O)c2c(-c3ccccc3)n3c4ccccc4ncc3c2n(C)c1=O | 0% | i | i | 1.2% | 13% | -1.4% | i
CCn1c(=N)c(C(=O)OC)cc2c(=O)n3ccccc3nc21 | -7% | ? | i | -1.3% | ? | -8.7% | ?
CCN(CC)c1nc2ccccc2nc1C(C#N)C(=O)NCCc1ccccc1 (stereo not given) | 9% | ? | i | -0.3% | 13% | -1.9% | 1.1e-07M*
O=C(Nc1nc2n(n1)C(c1ccccc1)C=C(c1ccccc1)N2)c1ccco1 (stereo not given) | 33%[activator] | i | i | 0.7% | 2% | 0.3% | ?
CCOC(=O)c1cc2c(=O)n3cccc(C)c3nc2n(CCOC)c1=NC(=O)c1ccncc1 | 2% | i | i | -0.3% | 14% | 0.7% | i
O=c1ccc2cc(O)c(O)cc2o1 | 7% | i | i | 1.2% | 2%[25.6 µM] | -5.9%[3.08 µM] | ?
N#CCCn1c(=O)c(-c2cccc(C#N)c2)nc2cnc(N3CCOCC3)nc21 | 198%[activator] | i | i | 0.4% | 9% | -2.1% | ?

By substructure, the entries above containing a CF3 group (2)
Molecule | USP2a inhib | Texas Red fluor | Rhodamine autofl | BRCT inh red | HEK293 cAMP ctrl | BRCT PPI green | Fluorescein fluor
O=C(NCc1ccco1)c1cc2nc(-c3ccc4c(c3)OCO4)cc(C(F)(F)F)n2n1 | / | i | i | 1.3% | 7% | -1.5% | i
O=C(NC1CCCC1)c1cnn2c(C(F)(F)F)cc(-c3ccco3)nc12 | 38%[activator] | i | i | 0.5% | ? | -1.2% | ?

Next compounds follow.
Molecule | USP2a inhib | Texas Red fluor | Rhodamine autofl | BRCT inh red | HEK293 cAMP ctrl | BRCT PPI green | Fluorescein fluor
COc1ccc(Oc2ncc3nc(-c4cc(F)cc(F)c4)c(=O)n(C4CC4)c3n2)cc1 | 145%[activator] | i | i | 2.0% | -11% | -2.5% | i
O=C(O)Cn1nc(C(F)(F)F)c2c1CCCCC2 | 5% | i | i | 1.1% | ? | -1.8% | ?
CN(C)c1ncc2nc(-c3cc(F)cc(F)c3)c(=O)n(CCc3ccccc3)c2n1 | 18% | i | i | 0.3% | 12% | -0.4% | i
Cn1c(=N)c(S(=O)(=O)c2ccc(F)cc2)cc2c(=O)n3ccccc3nc21 | 5% | ? | i | 0.6% | -15% | ? | ?
